# Vaccinia stage = blocks a specific stage of Vaccinia orthopoxvirus infection, primary screen, cell-based, single point; activity change (mCherry), % (test concentration not listed); 89,000 tested, 0.01% active; Vaccinia-infected cells, mCherry/Venus stage reporter fluorescence; hits give low values; some inactives read as strong as hits;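 active = mCherry past -33% and 40 or more points under the early reporter, replicates agreeing; inconclusive = past -33% without that gap or agreement; tested in A549 cells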;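 also: scaled between vehicle wells and reference inhibitor wells; 23 nL library stock went into each well; one replicate is shown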
# Vaccinia stage Venus = second read-out of Vaccinia stage, no call of its own (marks repeat the call); activity change (Venus), %; measured here: Venus reporter, other viral stage;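 negative = less Venus signal; first of two replicates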
# Starred values were filed as active, the others as inactive; ? = inconclusive; . = no result given; & = joins results of further samples. These rows are one share of the data, so the mix of outcomes need not match the whole.
SMILES,Vaccinia stage,Vaccinia stage Venus
C[C@@H]1CN([C@@H](C)CO)C(=O)Cc2cc(NC(=O)Nc3ccc(C(F)(F)F)cc3)ccc2O[C@H]1CN(C)C(=O)Nc1ccc(C(F)(F)F)cc1,-14,1
C[C@@H]1CN([C@H](C)CO)C(=O)c2cc(NC(=O)Nc3cccc4ccccc34)ccc2O[C@@H]1CN(C)Cc1ccc(-c2ccccc2)cc1,-10,0
C[C@@H]1CCCCO[C@@H](CN(C)CC2CCCCC2)[C@@H](C)CN([C@@H](C)CO)C(=O)c2cc(NC(=O)Nc3cccc4ccccc34)ccc2O1,-14,-12
C[C@H]1CN([C@@H](C)CO)C(=O)c2ccccc2-c2ccccc2CO[C@@H]1CN(C)Cc1ccncc1,20,1
COc1ccccc1-c1cn(CC[C@@H]2CC[C@H](NC(=O)CCN3CCCCC3)[C@H](CO)O2)nn1,3,5
CCC(=O)N1CC2(C1)[C@@H](c1ccc(-c3cccc(C)c3)cc1)[C@H](CO)N2S(C)(=O)=O,6,3
CCCC(=O)Nc1ccc2c(c1)C(=O)N(C)[C@@H]1CC[C@H](CC(=O)NC3CCCC3)O[C@H]1CO2,19,15
C[C@@H]1CN([C@H](C)CO)C(=O)c2cc(NC(=O)Nc3ccc(F)cc3)ccc2O[C@@H]1CN(C)C(=O)Nc1ccc(F)cc1,13,13
COc1ccccc1C(=O)N1C[C@H]2[C@@H](c3ccccc31)[C@H](CO)N2C(=O)Cc1cccnc1,0,0
CCC(=O)N1[C@H](C(=O)Nc2nccs2)[C@@H](CO)[C@@H]2Cn3c(ccc(/C=C/c4ccccc4)c3=O)[C@@H]21,-4,-2
CN(C)c1ccc2c(c1)[C@H]1C[C@H](CC(=O)NCc3ccc4c(c3)OCO4)O[C@H](CO)[C@H]1O2,1,1
Cc1ccc(S(=O)(=O)N(C)C[C@H]2Oc3ncc(C#CCC(C)C)cc3C(=O)N([C@@H](C)CO)C[C@@H]2C)cc1,?,.
CO[C@@H]1CN(C)C(=O)c2cc(NC(=O)Nc3cccc(F)c3)ccc2OC[C@@H](C)N(C(C)=O)C[C@H]1C,-1,11
COc1ccc(CN(C)C[C@@H]2Oc3c(NC(=O)Nc4ccccc4)cccc3C(=O)N([C@@H](C)CO)C[C@@H]2C)cc1,-20,-10
C[C@H](CO)N1C[C@H](C)[C@H](CN(C)C(=O)c2ccncc2)Oc2cc(C#C[C@@H](C)O)ccc2S1(=O)=O,7,6
O=C(Nc1cccc(F)c1)N1CC(=O)N2[C@@H](CO)[C@H](c3ccc(-c4cccc(F)c4)cc3)[C@@H]2C1,-23,-12
CCNC(=O)C[C@@H]1CC[C@@H]2[C@H](COC[C@@H](O)CN2Cc2ccncc2)O1,11,27
CO[C@@H]1CN(C)C(=O)c2cc(NC(=O)C3CC3)ccc2OC[C@@H](C)N(C(=O)c2ccncc2)C[C@@H]1C,8,-2
CCN(C[C@@H]1N[C@@H](CO)[C@H]1c1ccc(-c2cccc(C#N)c2)cc1)C(C)=O,-9,-5
C[C@@H]1CCCCO[C@@H](CN(C)C(=O)NC2CCCCC2)[C@@H](C)CN([C@H](C)CO)C(=O)c2cc(NS(=O)(=O)c3ccc(F)cc3)ccc2O1,9,-2

# An excerpt of these results, with values under each structure.
# Every second line gives: Vaccinia stage | Vaccinia stage Venus
Cc1ccc(S(=O)(=O)N(C)C[C@H]2Oc3ncc(C#CCC(C)C)cc3C(=O)N([C@@H](C)CO)C[C@@H]2C)cc1
 : ? | .
CO[C@@H]1CN(C)C(=O)c2cc(NC(=O)Nc3cccc(F)c3)ccc2OC[C@@H](C)N(C(C)=O)C[C@H]1C
 : -1 | 11
COc1ccc(CN(C)C[C@@H]2Oc3c(NC(=O)Nc4ccccc4)cccc3C(=O)N([C@@H](C)CO)C[C@@H]2C)cc1
 : -20 | -10
C[C@H](CO)N1C[C@H](C)[C@H](CN(C)C(=O)c2ccncc2)Oc2cc(C#C[C@@H](C)O)ccc2S1(=O)=O
 : 7 | 6
O=C(Nc1cccc(F)c1)N1CC(=O)N2[C@@H](CO)[C@H](c3ccc(-c4cccc(F)c4)cc3)[C@@H]2C1
 : -23 | -12

# Further structures follow:
SMILES,Vaccinia stage,Vaccinia stage Venus
COc1ccc(NC(=O)Nc2ccc3c(c2)CC(=O)N([C@@H](C)CO)C[C@H](C)[C@@H](CN(C)C(=O)NC(C)C)O3)cc1,9,3
O=C(C[C@H]1C[C@H]2c3cc(NS(=O)(=O)c4ccc(F)cc4)ccc3O[C@H]2[C@@H](CO)O1)NCCN1CCCCC1,9,20
COc1cccc(NC(=O)N2CC3(C2)[C@H](c2ccccc2)[C@H](CO)N3C(C)=O)c1,8,11
CNC[C@@H]1Oc2ccc(NC(=O)Nc3ccc(C(F)(F)F)cc3)cc2CC(=O)N([C@@H](C)CO)C[C@@H]1C,-15,4
CO[C@@H]1CN(C)C(=O)c2cc(NC(=O)Nc3cccc(F)c3)ccc2OC[C@H](C)N(C(=O)Nc2c(C)noc2C)C[C@@H]1C,10,15
O=C(O)C[C@H]1C=C[C@@H](NC(=O)Nc2cc(F)ccc2F)[C@H](CO)O1,8,3
Cc1noc(C)c1NC(=O)Nc1ccc2c(c1)C(=O)N([C@H](C)CO)C[C@H](C)[C@@H](CN(C)C(=O)Nc1ccc(C(F)(F)F)cc1)O2,7,3
C[C@@H]1CN([C@@H](C)CO)C(=O)CCCn2nncc2CO[C@H]1CN(C)Cc1ccc(O)cc1,-4,-5
CCCC#Cc1cnc2c(c1)C(=O)N([C@H](C)CO)C[C@H](C)[C@H](CN(C)C(=O)Cc1cccnc1)O2,31,32
C[C@@H]1CN([C@@H](C)CO)C(=O)Cc2cc(NC(=O)CCN3CCOCC3)ccc2O[C@@H]1CN(C)Cc1ccc(C(=O)Nc2ccccc2N)cc1,10,11
O=C(c1cccc(F)c1)N1C[C@H]2[C@@H](c3ccccc31)[C@@H](CO)N2C(=O)Cc1ccccc1,13,8
Cc1noc(C)c1S(=O)(=O)Nc1ccc2c(c1)C(=O)N([C@H](C)CO)C[C@H](C)[C@H](CN(C)Cc1ccc3c(c1)OCO3)OCCCC[C@H](C)O2,?,.
C[C@@H]1CN([C@@H](C)CO)C(=O)c2cccc(NC(=O)CCCCCC(=O)Nc3ccccc3N)c2O[C@@H]1CN(C)C,4,-2
C[C@@H]1CN([C@@H](C)CO)C(=O)c2cc(Br)cnc2O[C@@H]1CN(C)C(=O)CN(C)C,-10,-10
CCCNC(=O)N1CC2(C1)CN(C(=O)CN1CCOCC1)[C@@H](CO)c1[nH]c3cc(OC)ccc3c12,6,5
CCCN1C[C@H](C)[C@H](OC)CN(C)C(=O)c2ccc(NC(=O)Nc3c(C)noc3C)cc2OC[C@H]1C,2,-3
COc1ccc(NC(=O)Nc2ccc3c(c2)CC(=O)N([C@H](C)CO)C[C@H](C)[C@@H](CN(C)CC2CCCCC2)O3)cc1,?,.
C[C@@H]1CN([C@H](C)CO)C(=O)CCCn2nncc2CO[C@@H]1CN(C)S(=O)(=O)c1ccccc1C#N,5,2
CCCC#Cc1ccc2c(c1)O[C@@H](CN(C)C(=O)C1CC1)[C@H](C)CN([C@@H](C)CO)S2(=O)=O,-30,-26
C[C@H](CO)N1C[C@H](C)[C@H](CN(C)CC2CCCCC2)Oc2ccc(NC(=O)Cn3cnnn3)cc2CC1=O,3,2
CCCC#Cc1cnc2c(c1)C(=O)N([C@@H](C)CO)C[C@H](C)[C@H](CN(C)Cc1ccc3c(c1)OCO3)O2,-12,-6
CC(C)C#Cc1cnc2c(c1)C(=O)N([C@H](C)CO)C[C@@H](C)[C@H](CN(C)C(=O)Cc1ccncc1)O2,-9,-4
CC(C)NC(=O)Nc1ccc2c(c1)C(=O)N([C@H](C)CO)C[C@H](C)[C@@H](CN(C)S(=O)(=O)c1ccccc1)OCCCC[C@@H](C)O2,9,10
CC(C)CC#Cc1ccc([C@H]2[C@@H](CO)N3C(=O)CN(C(=O)c4ccc5c(c4)OCO5)C[C@H]23)cc1,?,.
CO[C@H]1CN(C)C(=O)c2cc(NC(=O)Nc3cc(F)ccc3F)ccc2OC[C@@H](C)NC[C@@H]1C,-18,-13
CCCNC(=O)C[C@H]1C[C@H]2c3cc(NC(=O)CC4CC4)ccc3O[C@H]2[C@H](CO)O1,10,12
C[C@H]1CN([C@@H](C)CO)S(=O)(=O)c2ccc(-c3cccnc3)cc2O[C@@H]1CN(C)Cc1ccncc1,0,-8
C[C@H](CO)N1C[C@H](C)[C@@H](CN(C)C(=O)Nc2ccccc2)Oc2c(NS(=O)(=O)c3cn(C)cn3)cccc2C1=O,13,3
O=C([C@H]1[C@H](CO)[C@H]2Cn3c(cccc3=O)[C@H]2N1Cc1ccccc1Cl)N1CCCCC1,0,19
C[C@H]1CN([C@@H](C)CO)C(=O)Cc2cc(NC(=O)CCC(F)(F)F)ccc2O[C@@H]1CN(C)C(=O)Nc1ccccc1,0,5

# An excerpt from above in order of number of heavy atoms, high to low:
SMILES,Vaccinia stage,Vaccinia stage Venus
CC(C)NC(=O)Nc1ccc2c(c1)C(=O)N([C@H](C)CO)C[C@H](C)[C@@H](CN(C)S(=O)(=O)c1ccccc1)OCCCC[C@@H](C)O2,9,10
C[C@H](CO)N1C[C@H](C)[C@@H](CN(C)C(=O)Nc2ccccc2)Oc2c(NS(=O)(=O)c3cn(C)cn3)cccc2C1=O,13,3
CCCC#Cc1cnc2c(c1)C(=O)N([C@@H](C)CO)C[C@H](C)[C@H](CN(C)Cc1ccc3c(c1)OCO3)O2,-12,-6
CC(C)CC#Cc1ccc([C@H]2[C@@H](CO)N3C(=O)CN(C(=O)c4ccc5c(c4)OCO5)C[C@H]23)cc1,?,.

# Going on with the list:
SMILES,Vaccinia stage,Vaccinia stage Venus
C[C@H](CO)N1C[C@H](C)[C@@H](CN(C)C(=O)Nc2ccccc2)Oc2ccc(NC(=O)Nc3ccc(C(F)(F)F)cc3)cc2CC1=O,-12,-11
C[C@H](CO)N1C[C@H](C)[C@H](CN(C)C(=O)c2cc(-c3ccccc3)on2)OCc2cnnn2CCCC1=O,-6&0,-3&1
C[C@H]1CN([C@@H](C)CO)C(=O)Cc2cc(NC(=O)C3CCCCC3)ccc2O[C@H]1CN(C)Cc1ccc(Cl)c(Cl)c1,-17,-15
C[C@@H]1CCCCO[C@H](CN(C)S(=O)(=O)c2ccc(F)cc2)[C@H](C)CN([C@@H](C)CO)C(=O)c2cc(NC(=O)NC3CCCCC3)ccc2O1,-21,-8
CCCNC(=O)Nc1ccc2c(c1)C(=O)N(C)C[C@H](OC)[C@@H](C)CN(C(=O)C1CCC1)[C@@H](C)CO2,-4,-3
COC(=O)C[C@H]1CC[C@H]2[C@@H](COc3ccc(NS(=O)(=O)c4ccc(F)cc4)cc3C(=O)N2C)O1,11,3
C[C@H](CO)N1C[C@H](C)[C@@H](CN(C)Cc2ccc(Cl)c(Cl)c2)Oc2c(NC(=O)Nc3ccccc3)cccc2C1=O,-4,2
O=C(C[C@@H]1CC[C@@H]2[C@H](COC[C@H](O)CN2Cc2nccs2)O1)NCc1ccccc1F,1,-1
CN(C)C(=O)C[C@@H]1CC[C@H]2[C@@H](COc3ccc(NC(=O)C4CCC4)cc3C(=O)N2C)O1,4,-1
C[C@H]1CN([C@@H](C)CO)C(=O)c2cccc(NC(=O)C3CCCCC3)c2O[C@@H]1CN(C)S(=O)(=O)c1cccs1,10,0
CCCN(C)C[C@H]1Oc2cc(C#Cc3cccnc3)ccc2S(=O)(=O)N([C@H](C)CO)C[C@@H]1C,0,7
C[C@H](CO)N1C[C@H](C)[C@@H](CN(C)Cc2ccc(Cl)c(Cl)c2)Oc2c(NS(=O)(=O)c3ccc(Cl)cc3)cccc2C1=O,-21,-17
C[C@@H](NC(=O)C[C@H]1CC[C@H]2[C@@H](COC[C@@H](O)CN2C)O1)c1ccccc1,24,10
CO[C@H]1CN(C)C(=O)c2cc(NC(C)=O)ccc2OC[C@@H](C)N(C(=O)Cc2ccccn2)C[C@@H]1C,7,5
COc1ccc(NC(=O)N(C)C[C@@H]2Oc3ccc(N(C)C)cc3CC(=O)N([C@H](C)CO)C[C@H]2C)cc1,22,18
Cc1noc(C)c1NC(=O)N(C)C[C@@H]1Oc2ccc(NC(=O)Nc3ccccc3)cc2C(=O)N([C@@H](C)CO)C[C@@H]1C,12,14
C#CCNC(=O)C1=C[C@H](C2CC2)C[C@H](OCCCCO)O1,14,6
O=C(C[C@H]1C=C[C@@H](NC(=O)Nc2ccc(C(F)(F)F)cc2)[C@H](CO)O1)NCc1ccccn1,-6,-9
C[C@H](CO)N1C[C@H](C)[C@H](CN(C)C(=O)c2ccccn2)Oc2ncc(-c3cccc(F)c3)cc2C1=O,1,3
CCC(=O)Nc1ccc2c(c1)C(=O)N(C)[C@@H]1CC[C@H](CC(=O)NCC3CC3)O[C@H]1CO2,3,8
C[C@@H]1CN([C@H](C)CO)S(=O)(=O)c2ccc(C#CC3(O)CCCC3)cc2O[C@H]1CN(C)C(=O)c1ccncc1,18,10
C[C@@H]1CN([C@@H](C)CO)C(=O)Cc2cc(NS(=O)(=O)c3cccs3)ccc2O[C@H]1CN(C)S(=O)(=O)c1ccc(F)cc1,-5,5
O=C(NCc1ccccc1F)[C@@H]1N[C@@H]2c3ccc(-c4ccccc4F)c(=O)n3C[C@@H]2[C@H]1CO,-20,-5
CCCNC(=O)N1CC2(CN(C(=O)C3CC3)C2)c2c([nH]c3cc(OC)ccc23)[C@H]1CO,17,6
COCC(=O)Nc1ccc2c(c1)[C@@H]1C[C@@H](CC(=O)NCC3CC3)O[C@H](CO)[C@@H]1O2,15,11
O=C(NCc1ccccc1)[C@@H]1N[C@@H]2c3cccc(=O)n3C[C@@H]2[C@H]1CO,19,5
CC(C)NC(=O)Nc1ccc2c(c1)C(=O)N([C@@H](C)CO)C[C@@H](C)[C@@H](CN(C)CC1CCCCC1)OCCCC[C@@H](C)O2,-4,-11
COC(=O)[C@]1(CO)N=C(c2ccc(OCCCO)cc2)O[C@@H]1c1ccccc1CN=[N+]=[N-],2,-4
O=C(C1CC1)N1C[C@@H]2[C@H](c3ccccc31)[C@@H](CO)N2S(=O)(=O)c1ccccc1,-9,6

# Bioassay records as filed in PubChem.
